Vaccinia Venus: vaccinia inhibition (Venus reporter); Potency, µM (doses to about 36.5 µM), inactives show top-dose activity change, negative = inhibition, hits mostly inhibitors; Vaccinia virus Venus reporter expression, fluorescence; AID 720580; 0.46% of 330,000 active; active means well fitted inhibition curve with a large enough effect; inconclusive means small, poorly fitted or top-dose-only effect; inactive means no such curve, though single readings can be large or run the other way; tested in A549 cells; also: nearly all actives have a fitted effect of over 30% in size; inactives centre near -10
VACV mCherry inh: vaccinia inhibition (mCherry reporter); Vaccinia virus mCherry reporter infection, fluorescence; about a quarter of the inactives have no number; AID 720579; Potency, µM (series often up to 36.5 µM), without a hit: at the top dose activity change, negative = inhibition, most hits filed as inhibitors; 0.63% of 310,000 active; active = well fitted inhibition curve with a large enough effect; inconclusive = small, poorly fitted or top-dose-only effect; inactive = no such curve, though single readings can be large or run the other way; tested in A549 cells; also: nearly all actives have a fitted effect of over 35% in size; inactives centre near -10
* marks the source's active call; other numbers are inactive results; i = inactive; u = inconclusive; x = no result given; [ ] = dose if it differs, or a comment. % is scaled to controls: 0 for no effect and ±100 for the full control effect; potency is read from the fitted curve at half-maximal effect.

The opening 3 entries (preview)
SMILES	Vaccinia Venus	VACV mCherry inh
CCOc1ccc(-c2noc(CSc3nnc(Cc4ccccc4)n3-c3cccc(C)c3)n2)cc1	-27%	-22%
CN(c1ccc(C(=O)Nc2cccc(O)c2)cc1)S(=O)(=O)c1ccccc1	-23%	-13%
O=C(c1cccn1-c1nnc(N2CCCC2)s1)N1CCN(c2ccccc2)CC1	-12%	-4%

All compounds of this part, from the start:
SMILES	Vaccinia Venus	VACV mCherry inh
CCOc1ccc(-c2noc(CSc3nnc(Cc4ccccc4)n3-c3cccc(C)c3)n2)cc1	-27%	-22%
CN(c1ccc(C(=O)Nc2cccc(O)c2)cc1)S(=O)(=O)c1ccccc1	-23%	-13%
O=C(c1cccn1-c1nnc(N2CCCC2)s1)N1CCN(c2ccccc2)CC1	-12%	-4%
NC(=O)c1c(NC(=O)c2noc3c2CCCC3)sc2c1CCCC2	-16%[7.34 µM]	i[7.34 µM]
CO[C@H]1[C@H](NC(=O)c2ccco2)c2ccccc2C12CCN(Cc1cccn1-c1ccccn1)CC2	-4%	-16%
CCOC(=O)c1c(-c2ccccc2)cn2ccccc12	-28%	x
O=C(c1ccc(Sc2ccccc2)c([N+](=O)[O-])c1)N1CCOCC1	-25%	-9%
O=C(Nc1ccc(NC(=O)c2cccs2)cc1)c1cccs1	1%	-5%
CN(NC(=O)C1CC(=O)N(c2ccccc2)C1)C1=NS(=O)(=O)c2ccccc21 (stereo not drawn)	0%	i
COCCCNC(=O)CN1C(=O)/C(=C\c2ccc(C)cc2)Sc2ccccc21	-23%	-23%
COc1ccc2nc(SCC(=O)NCC(F)(F)F)[nH]c2c1	-4%	-15%
COCCNC(=O)/C(C#N)=C/c1ccc(OCc2ccc(F)cc2)cc1	-7%	-20%

A few values from above:
Vaccinia Venus, CN(NC(=O)C1CC(=O)N(c2ccccc2)C1)C1=NS(=O)(=O)c2ccccc21 (stereo not drawn) stands at 0%
Vaccinia Venus, O=C(Nc1ccc(NC(=O)c2cccs2)cc1)c1cccs1 stands at 1%
VACV mCherry inh, CCOc1ccc(-c2noc(CSc3nnc(Cc4ccccc4)n3-c3cccc(C)c3)n2)cc1 stands at -22%

The list goes on.
SMILES	Vaccinia Venus	VACV mCherry inh
O[C@@H]1CCCN2CCc3c([nH]c4ccccc34)[C@H]12	2%	21%
COC(=O)NC1c2ccccc2Oc2ccccc21	-5%	-15%
COc1ccc(OCC(O)CN2CCNCC2)cc1 (stereo not drawn)	-5%	-8%
CCCCCOc1ccc(NC(=O)CSc2cccc3cccnc23)cc1	7%	-10%
CNc1nc(N)c([N+](=O)[O-])c(Nc2cccc(F)c2)n1	-9%[7.34 µM]	i[7.34 µM]
OCC[C@@H]1C[C@H](O)[C@@H](O)[C@@]2(OCCc3cc(Cl)ccc32)O1	-5%	20%
CC(C)C[C@H]1CNC(=S)N1CC1CCCN1C[C@H](Cc1ccccc1)N1C[C@H](Cc2ccccc2)N(CC2CCCCC2)C1=S (stereo partly drawn)	-15%	-12%
Cc1ccc2c(CC(=O)NC3CCCc4ccccc43)coc2c1 (stereo not drawn)	-19%	i
O=C(Cc1ccccc1)Nc1sc2c(c1C(=O)Nc1ccccc1Cl)CCCC2	-8%	-10%
Cc1cccc2c(=O)cc(CSCC(=O)Nc3ccc(Cl)cc3)[nH]c12	-5%	19%
NC(=O)c1ccsc1NC(=O)COC(=O)Cc1ccsc1	-19%	-13%
Cc1cccc(NC(=O)CN2CCN(CC(=O)NCc3ccc(Cl)cc3Cl)CC2)c1C	-2%	-9%

A different layout for some results above:
Order of values: Vaccinia Venus | VACV mCherry inh
> CCCCCOc1ccc(NC(=O)CSc2cccc3cccnc23)cc1
→ 7% | -10%
> CNc1nc(N)c([N+](=O)[O-])c(Nc2cccc(F)c2)n1
→ -9%[7.34 µM] | i[7.34 µM]
> OCC[C@@H]1C[C@H](O)[C@@H](O)[C@@]2(OCCc3cc(Cl)ccc32)O1
→ -5% | 20%
> CC(C)C[C@H]1CNC(=S)N1CC1CCCN1C[C@H](Cc1ccccc1)N1C[C@H](Cc2ccccc2)N(CC2CCCCC2)C1=S (stereo partly drawn)
→ -15% | -12%
> Cc1ccc2c(CC(=O)NC3CCCc4ccccc43)coc2c1 (stereo not drawn)
→ -19% | i
> O=C(Cc1ccccc1)Nc1sc2c(c1C(=O)Nc1ccccc1Cl)CCCC2
→ -8% | -10%
> Cc1cccc2c(=O)cc(CSCC(=O)Nc3ccc(Cl)cc3)[nH]c12
→ -5% | 19%

(listing goes on)
SMILES	Vaccinia Venus	VACV mCherry inh
CCOc1ccc(N2C(=O)CC(N(CCc3ccc(OC)cc3)C(=O)/C=C/C(=O)O)C2=O)cc1 (stereo not drawn)	-7%	i
C/C(=N\NC(=S)NC1CCCCC1)c1ccc(O)cc1	-28%	u
COc1ccc(-c2cc(CNS(=O)(=O)c3ccc(F)cc3)on2)cc1	-25%	-12%
Cn1c(=O)c2c(nc(N3CCCCC3)n2CCCNC2=NCCCC2)n(C)c1=O	-13%	i
Clc1cccc(N2CCN(c3nc4ccccc4n4cnnc34)CC2)c1	-3%	i
COc1cc(Cl)ccc1OC1(C)CCN(Cc2ccc3ccccc3c2)C1 (stereo not drawn)	-6%	2%
Cc1ccc(C(=O)NNC(=O)c2ccc(-n3cncn3)c([N+](=O)[O-])c2)cc1	0%	-14%
CCN(CC)CCCNc1ncnc2c1cnn2-c1ccc(C)c(C)c1	-15%	-4%
Cc1ccc(-c2nc3ccc(C)cn3c2Cc2ccccn2)cc1	4%	1%
COc1ccc(CNC(=O)CN2C(=O)CC(c3ccc(C)c(C)c3)=Nc3ccccc32)cc1	41%[activator]	1%
COc1ccc(C(=O)/C=C/C(=O)N(Cc2ccc(F)cc2)C(C(=O)NC2CCCCC2)c2ccncc2)c(O)c1 (stereo not drawn)	u	-3%
CN(c1ccc(F)cc1)S(=O)(=O)N1CCCC(C(=O)NCc2cccc(Br)c2)C1 (stereo not drawn)	-15%	-5%
CN1C(=O)N(CC(=O)N2CCN(S(=O)(=O)c3ccc4c(c3)CCC4)CC2)C(=O)C12CCCCC2	-1%	-12%
Cc1ccccc1-c1csc(C(O)c2cccnc2)n1 (stereo not drawn)	2%	10%
Cc1ccc(COc2ccc(Br)cc2/C=N/O)cc1	u	-27%
CCc1ccc(S(=O)(=O)c2nnn3c2nc(N2CCCC2)c2sccc23)cc1	-5%	-7%
COc1ccc(NC(=O)COC(=O)C2CC(=O)N(c3ccc(OC(C)C)cc3)C2)cc1 (stereo not drawn)	-11%	-15%
Cc1c(C(=O)Nc2nc3ccccc3[nH]2)cccc1[N+](=O)[O-]	-17%	19%
Cc1ccc(NC(=O)c2nc[nH]c2C(=O)NCCCCCNC(=O)OC(C)(C)C)cc1	u	-12%
CCCCCc1nnc(NS(C)(=O)=O)s1	1%	-11%
COc1cccc(/C=C(/C#N)c2ccc(Cl)cc2)c1OCc1cccc(C(=O)O)c1	-5%	i
Cc1cc(C2(c3cc(C)c(NC(=O)CN4CCOCC4)c(C)c3)CCCCC2)cc(C)c1NC(=O)CN1CCOCC1	-6%	x
O=C(NCc1cccc(F)c1)c1cccc2c1C(=O)c1ccc(N3CCC(Cc4ccccc4)CC3)cc1S2(=O)=O	31%[activator]	i
COc1ccc(CCN(C(=O)c2snc(C(N)=O)c2N)C(C)C(=O)NC2CCCCC2)cc1OC (stereo not drawn)	-13%	-10%
Cc1ccc(CN2CC(C(=O)NCCCSc3ccccc3)CC2=O)cc1 (stereo not drawn)	-29%	-7%
CC(OC(=O)COc1ccccc1[N+](=O)[O-])C(=O)Nc1ccc(N2CCOCC2)cc1 (stereo not drawn)	-9%	-6%
O=C(c1cc(F)ccc1F)C1CCCN(C(=O)c2cccs2)C1 (stereo not drawn)	-12%	i
CC(OC(=O)c1ccc(Cl)c(S(=O)(=O)Nc2ccc(F)cc2)c1)C(=O)NC(N)=O (stereo not drawn)	-2%[7.34 µM]	i[7.34 µM]
COc1ccc(OC(C)C(=O)N2CCCc3ccccc32)cc1 (stereo not drawn)	-2%	-11%
CCn1cc(C(=O)NCc2ccccc2Cl)cn1	-22%	-7%
COc1ccc(CSc2nc(C)cc(=O)[nH]2)cc1Br	-6%	0%
c1n[nH]c(NC2=NCCC2)n1	u	2%
O=C1CN(C(=O)c2ccccc2C(=O)O)c2ccccc2N1	-14%	-2%
CCc1cc(=O)oc2c(C)c(OCC(=O)N3CCC[C@@H]3C(=O)O)ccc12	1%	-8%
COc1ccc(S(=O)(=O)Nc2cc3c(cc2N2CCOCC2)n(C)c(=O)n3C)cc1	4%	-6%
O=C(NCCNC(=O)c1cc(Cl)ccc1Cl)c1ccccn1	3%	-9%

In a second layout: results already given
Values run as follows: Vaccinia Venus, VACV mCherry inh
O=C1CN(C(=O)c2ccccc2C(=O)O)c2ccccc2N1
→ -14%, -2%
CCc1cc(=O)oc2c(C)c(OCC(=O)N3CCC[C@@H]3C(=O)O)ccc12
→ 1%, -8%
COc1ccc(S(=O)(=O)Nc2cc3c(cc2N2CCOCC2)n(C)c(=O)n3C)cc1
→ 4%, -6%

New compounds follow:
SMILES	Vaccinia Venus	VACV mCherry inh
NC(=O)C1CCN(C(c2ccccc2Cl)c2nnnn2CC2CCCO2)CC1 (stereo not drawn)	-18%	x
O=c1ccn([C@@H]2O[C@H](CNS(=O)(=O)c3cc4ccccc4s3)[C@@H](O)[C@H]2O)c(=O)[nH]1	9%	i
Cc1ccccc1NC(=O)CSc1nc2c(oc3ccccc32)c(=O)n1-c1ccccc1F	-8%	-12%
O=C(CNC(=O)N1CC(=O)Nc2ccccc21)NCCc1cccc(F)c1	-10%	-11%
CCN(C(=O)c1ccc(Cl)cc1[N+](=O)[O-])c1ccccc1C	-11%	-2%
CCCN1CCN(C(=O)c2ccc(CS(=O)c3ccc(Cl)cc3)o2)CC1 (stereo not drawn)	0%[7.34 µM]	i[7.34 µM]
COC(=O)CSc1nc(SCc2ccccc2Cl)nc2c1CCCC2	-4%	-12%
COc1cccc(NC(=O)N2CCN(c3nnnn3-c3ccccc3)CC2)c1	0%	-8%
CCOc1ccc(CN(CCc2ccc3c(c2)OCO3)Cc2ccc(C)cc2)cc1	-4%[7.34 µM]	-2%[7.34 µM]
COc1ccc(C(=O)CSc2nc3ccc([N+](=O)[O-])cc3[nH]2)cc1	-9%	-16%
Cc1ccc(S(=O)(=O)N2C[C@H]3[C@H]4C(=O)N(C)C(=O)[C@H]4CC(=O)[C@H]3[C@@H]2c2ccccc2F)cc1	6%	35%[activator]
COc1cccc(C2=NOC(C(=O)N3CCC4(CC3)OCCO4)C2)c1 (stereo not drawn)	-15%	-12%
Cc1cc(Nc2nc3ccccc3nc2Cl)n(-c2ccccc2C)n1	-23%	-9%
COc1cc(CCCN2C(=O)C(=O)NC[C@@H]2CCCCN)cc(OC)c1OC	-5%	i
CCCCC1(C(=O)OCC)CC(CN2CCOCC2)OC1=O (stereo not drawn)	-7%	-12%
COc1cc(C(=O)N2CCN(S(=O)(=O)c3cccc(F)c3)CC2)ccc1OCC(=O)N1CCOCC1	3%	-3%
c1ccc(CNc2c3c(nc4ncnn24)CCC3)cc1	-12%	-13%
CN(C)C(CNC(=S)Nc1ccccc1)c1cccnc1 (stereo not drawn)	-2%	i
Cc1ccc(CSc2nc3ccccc3c(=O)n2Cc2ccco2)cc1	-22%	-28%
Cc1ccc(OCCOc2ccc(Br)cc2)c([N+](=O)[O-])n1	-25%	-5%
CN(C(=O)c1cc2c(cc1Br)OCO2)c1cccc2ccccc12	-15%	-14%
C=CCSc1nc(=O)n2ccc(C)cc2n1	1%	i
CC(C)CNC(=O)CO/N=C/c1ccccc1Cl	-15%	-12%
CC(C)(C)NC(=O)C(c1ccccc1)N(Cc1cccs1)C(=O)c1csnn1 (stereo not drawn)	-15%	-26%
C=CC(=O)Nc1cccc(Oc2ccnc3[nH]ccc23)c1	5.6µM*	u
O=C(NCc1ccccc1Cl)c1csc([C@H]2C[C@H](O)[C@@H](CO)O2)n1	-7%	-3%
O=C(c1cccc(S(=O)(=O)N2CCc3ccccc32)c1)N1CCN(c2ccccc2)CC1	-10%	-25%
Clc1ccc(-c2ccc(/C=N/Nc3nncc(-c4ccccc4)n3)o2)cc1	1%	-11%
COC(=O)c1c(NC(C)=O)sc2c1CCCCC2	-5%	-12%
COc1ccc(C(O)P(=O)(OC(C)C)OC(C)C)c(OC)c1 (stereo not drawn)	0%	i
Cc1ccc(NC(=O)[C@@H](c2ccccc2)N2Cc3ccccc3C2=O)cc1	-5%	-14%
COc1cccc(C(=O)Nc2c(F)cccc2F)c1	-20%	-1%
Cc1onc(-c2ccccc2)c1C(=O)OCCOc1cccc(Cl)c1	-24%	-26%
CC(C)(C)OC(=O)N1CCC(c2c(C(=O)N3CCN(C4CCCCC4)CC3)cnn2-c2cccc(Cl)c2)CC1	-19%	-19%
COc1ccc(CNC(=O)CN(C(=O)CCC(=O)Nc2nccs2)c2cccc(C)c2)cc1	-9%	-16%
COc1ccccc1N(C(=O)CNS(=O)(=O)c1ccccc1)C(C(=O)NCc1ccco1)C(C)C (stereo not drawn)	-1%	-3%
Cc1cc(C)n2nc(C(=O)N/N=C/c3ccc(O)cc3)nc2n1	-8%	-1%
COC(=O)c1ccc2nc(-c3cccc(N)c3)cn2c1	-13%	-13%
O=C(Nc1ccccc1Cl)C1C2CCCCC21 (stereo not drawn)	-1%	i
O=C(CCCCCN1C(=O)CCC1=O)Nc1ccc(Cl)c(C(F)(F)F)c1	-20%	-28%
COc1ccc(NC(=O)Nc2ccc(CC(=O)O)cc2)cc1	-3%	-10%
COc1ccc2cc(C#CC3=CC(=O)C[C@H](c4ccc(F)cc4)C3)ccc2c1	-18%	-17%
Cn1ccnc1SCC(=O)Nc1ccc2ccccc2c1	-9%	i
O=C1CCCN1C1CCN(Cc2ccccc2)S(=O)(=O)N1 (stereo not drawn)	-4%	-5%
O=C(Nc1cccc(C(F)(F)F)c1)Nc1nnc(N2CCCCCC2)s1	u	u

This is a random part of the collection. Share with any hit: about 0.87%.
